HIV TAR-Tat: HIV-1 TAR-Tat binding disruption; AID 1259389; 100,000 tested, 0.6% active; z-score (no concentration beside the values); HIV-1 TAR RNA, Tat peptide displacement FRET; stronger effect = higher value;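 note: score is relative to mean and SD of negative controls; some compounds called inactive have numbers as strong as hits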
CDC25B-CDK2 inh: human CDC25B-CDK2/CyclinA binding inhibition. HTRF CDC25B-CDK2/CyclinA binding, anti-His/anti-Flag; stronger effect = higher value. z-score (concentration not given with the values). 94,000 tested, 0.72% active. AID 1259370;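 note: score is relative to mean and SD of negative controls; strong numbers were not always called active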
The depositor's hits bear a star; . = not tested or not shown.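 Rule for the calls: active = z-score from 3 up in half or more of its runs; inactive = the rest.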 The order is random, and some 0.87% of all compounds hit somewhere here.

SMILES | HIV TAR-Tat | CDC25B-CDK2 inh
Cc1cccc(Nc2nc(N3CCOCC3)nc(N)c2[N+](=O)[O-])c1 | 0.2 | .
O=C(NCc1cccc(Br)c1)c1ccc2c(c1)nc1n2CCOC1 | 0.52 | .
CCC(=O)N1CCc2cc(Br)cc(S(=O)(=O)NCc3ccco3)c21 | . | -0.1
Cc1sc2nc[nH]c(=O)c2c1S(=O)(=O)N1CCCCC1 | 1 | -1.3
CNC(=O)CSc1cn(CC(=O)N2CCCC2)c2ccccc12 | -1 | .
CCOc1ccccc1NS(=O)(=O)c1ccc2oc(=O)c3ncn(C)c3c2c1 | 0.45 | .
CN1C(=O)c2cccc3c(S(=O)(=O)NCC(=O)O)ccc1c23 | 1.1 | -0.34
O=C1c2oc3ccc(Br)cc3c(=O)c2C(c2ccc(O)cc2)N1Cc1ccccc1 (configuration not stated) | -0.51 | -1.9
COc1ccc(Cl)cc1S(=O)(=O)N1CCN(C(=O)c2cc(C3CC3)[nH]n2)CC1 | -1.6 | .
Cc1c(C(=O)N2CCC(c3nc4ccccc4o3)CC2)oc2ccc(F)cc12 | 0.03 | 1.8
CCOc1cc(C2C(C#N)=C(N)Oc3n[nH]c(-c4ccc5c(c4)OCO5)c32)ccc1O (configuration not stated) | . | -1.1
CCCCN1CCn2c(nc3cc(NC(=O)NC4CCCCC4)ccc32)C1 | -9.1 | -0.02
Cc1ccc(-c2noc(COc3ccc(C(C)C)cc3)n2)cc1 | . | -1
CCCCN1C(=O)C(O)(CC(=O)c2ccc(CC)cc2)c2ccccc21 (configuration not stated) | . | -0.63
C=CCN1C2=NC(=O)CN2c2ccccc21 | . | 0.81
COc1ccc(OC)c(S(=O)(=O)NC(=NCC(C)C)SC)c1 | . | 0.88
O=C(C1CCCN(c2nnc(-n3cccc3)s2)C1)N1CCCCC1 (configuration not stated) | 1.3 | .
Cn1cccc1CNCCc1ccc(S(N)(=O)=O)cc1 | -0.29 | 1.1
CC(C)c1ccc(C2C=C(C(=O)O)Nc3ncnn32)cc1 (configuration not stated) | 1.7 | .
Nc1nc(N)nc(-c2cc(Cl)ccc2Cl)n1 | 0.73 | .
CCOC(=O)N1CCN(S(=O)(=O)c2ccc3c(c2)C(C)(C)C(=O)N3C)CC1 | 1.4 | .
CCOc1cc(C2Nc3ccc4ccccc4c3C3=C2C(=O)CCC3)ccc1O (configuration not stated) | -0.27 | -1.9
c1ccc(CSc2n[nH]c3nc4ccccc4n23)cc1 | 2.4 | -0.61
CS(=O)(=O)Nc1ccc(-c2nc3ccccc3s2)cc1 | 0.43 | -0.5
O=C1CCSc2ccc(S(=O)(=O)Nc3ccc4c(c3)OCO4)cc2N1 | 1 | .
CC(C)NC(=O)CCCn1sc2ccccc2c1=O | -0.27 | 0.37
O=C(CN1C(=O)c2cccnc2Sc2ccccc21)Nc1ccc(Br)cc1 | 2.7 | -0.22
CCN1CCCC1CNC(=O)c1cc2n(n1)CC(C)(C(=O)NCCC(C)C)N(C)C2=O (configuration not stated) | -0.82 | .
CN(C)/C=C/C(=O)c1csc2ccccc12 | . | -0.39
Cc1cc(-c2ccc(S(=O)(=O)N3CCc4ccccc4C3)cc2)on1 | -0.78 | .
CCOC(=O)N1CCN(C(=O)CSc2nc3c([nH]c4ccccc43)c(=O)n2-c2ccccc2)CC1 | 2.4 | .
CSc1nc(NC(=O)NS(=O)(=O)Oc2ccc(Cl)cc2Cl)nc(C2CC2)n1 | . | -2.2
Cc1nn(-c2ccc(N3CCOCC3)nn2)c(C)c1CCC(=O)NC1CCCCC1 | -0.36 | .
COC(=O)C1=C(OC(=O)COc2ccc(OC)cc2)c2ccccc2S(=O)(=O)N1C(C)C | -0.72 | -0.71
CC(=O)Nc1ccc(OCc2cc(=O)n3c(C)csc3n2)cc1 | 1 | -2.1
CC(=O)C1=C(C)OC(=O)C1(NC(=O)c1ccc(C)cc1)C(F)(F)F (configuration not stated) | . | -1.5
CC1CN(S(=O)(=O)c2ccc(C(=O)O)cc2)CC(C)O1 (configuration not stated) | 1.3 | 0.27
O=C(Nc1cccc([N+](=O)[O-])c1)c1ccc2c(c1)C(=O)N(c1cccc3ccccc13)C2=O | . | 0.77
COc1ccc(-c2ccc(NS(=O)(=O)c3ccc4c(c3)OCCO4)cc2)nn1 | 0.34 | .
COc1ccccc1CCN1COc2ccc3c(oc(=O)c4ccccc43)c2C1 | 0.92 | -0.16
Cc1oc2ncnc(N3CCCCC3)c2c1C(=O)NCCN1C(C)CCCC1C (configuration not stated) | -1.1 | .
COc1ccc(NC(=O)NS(=O)(=O)c2ccc(C)cc2)cn1 | . | -0.71
COC(=O)c1ccc(NS(=O)(=O)c2cc(C(=O)OC)n(C)c2)cc1 | 0.93 | -1.2
CCOc1cc(C2C(C(=O)OC)=C(C)NC3=C2C(=O)CC(C)(C)C3)ccc1OC(=O)C1CC1 (configuration not stated) | 0.73 | -0.68
Cc1ccc(-n2ncc3c(NCc4ccccn4)ncnc32)c(C)c1 | . | -0.9
O=C(NC1CCCC1)C1CCC(CNS(=O)(=O)c2cccc3cccnc23)CC1 (configuration not stated) | . | -2.3
CCCSCCCNC(=O)Cn1cc2c(n1)CCCC2 | . | -0.91
CC1(C)CC(=O)c2cc(C(=O)Nc3ccc(Br)cc3)c(=O)n(-c3ccc(Cl)cc3)c2C1 | 2.8 | 0.06
c1ccc2oc(-c3csc(-c4ccc(-c5ccon5)s4)n3)cc2c1 | . | 0.63
COc1ccccc1N1C(=O)N(c2cccc(Cl)c2)C2CS(=O)(=O)CC21 (configuration not stated) | -0.05 | -0.58
C=CCN1C(=O)C(O)(CC(=O)c2ccc(C)o2)c2cc(Br)ccc21 (configuration not stated) | 1.1 | -0.83
CCN1CCN(CCNC(=O)C2CCCN(c3nnc(N4CCCC4=O)s3)C2)CC1 (configuration not stated) | 0.99 | .
Cn1nc(C(C)(C)C)cc1C(=O)Nc1c(-c2ccccc2)c(C(F)(F)F)nn1C | . | -1.2
Cn1c(Cn2c(=O)sc3ccccc32)nnc1SCC(=O)Nc1ccccc1F | . | 0.38
CC(=O)N1CCSc2ccc(S(=O)(=O)N3CCN(c4ccc(Cl)cc4)CC3)cc21 | 1.1 | .
CSc1ncc(Cl)c(C(=O)Nc2sc3c(c2C(=O)NCC2CCCO2)CCC3)n1 (configuration not stated) | 1.5 | -1.3
O=C(Cn1cc(C(=O)C2CC2)c2ccccc21)NCCOc1ccc(Cl)cc1 | -0.87 | -0.48
Cc1ccc(-c2nnc3sc(-c4ccco4)nn23)cc1 | 3 | -1.5
CCc1cc(C(=O)Nc2sc3c(c2C(N)=O)CCCC3)no1 | 0.91 | 0.4
CCc1ccccc1OCCSc1nc(-c2ccco2)nc2cc(=O)[nH]n12 | 1.6 | .
More structures
SMILES | HIV TAR-Tat | CDC25B-CDK2 inh
CCCC(O)c1nc2ccccc2n1Cc1ccccc1C (configuration not stated) | 0.88 | 1.9
CC(CC(=O)NCc1cccs1)S(=O)(=O)c1ccc2c(c1)CCN2C(=O)C1CC1 (configuration not stated) | -0.37 | .
COC(=O)c1sc2ccccc2c1S(=O)(=O)Nc1ccccc1F | 0.81 | .
CCOC(=O)C1CCN(c2c(-c3cc(C)c(C)cc3C)c(=O)c2=O)CC1 | 0.94 | .
CN1C(=O)c2cccc3c(Cl)ccc(c23)C1=O | . | -0.64
COC(=O)C1=C(C)NC2=C(C(=O)CC(c3ccc(Cl)cc3)C2)C1c1ccccc1OC(C)C (configuration not stated) | 1.3 | -2.3
O=C(O)CSCC(=O)Nc1ccccc1Oc1ccccc1 | . | 4.9
CCOC(=O)C1CCCN(C(=O)c2ccc(C(C)(C)C)cc2)C1 (configuration not stated) | . | -1.9
CC1C=CCC2C(=O)N(c3ccc(Cl)cc3O)C(=O)C12 (configuration not stated) | . | 0.55
O=C(Nc1ccccc1C(=O)NC1CCCC1)C1=CSCCO1 | 2 | .
Cc1ccc(C)c2c1C(=O)c1ccccc1C2=O | . | -0.31
Cn1c(=O)c2c(nc(CN3CCc4ccccc4C3)n2Cc2ccccc2F)n(C)c1=O | 2.4 | -1.3
CCOCCOC(=O)C1=C(C)NC2=C(C(=O)CC(c3cccs3)C2)C1c1ccc2c(c1)OCO2 (configuration not stated) | 1.4 | -1.6
CN(C)CCNC(=O)C1CCN(c2ccc(-c3cccs3)nn2)CC1 | 0.51 | .
COC(=O)c1ccccc1OCC(O)Cn1c[n+](C)c2cc(C)c(C)cc21 (configuration not stated) | -0.08 | -0.51
O=C(COc1ccc2c(c1)oc(=O)c1ccccc12)c1ccc2ccccc2c1 | . | -3.2
COc1cc2nc(Nc3ccc(C)c(C)c3)nc(N)c2cc1OC | 1.3 | 9.3*
O=C(c1ccco1)N1CCN(CCN2CCOCC2)CC1 | . | -1
O=C1CCCc2cc(S(=O)(=O)NCCN(CCN3CCOCC3)Cc3cccs3)ccc2N1 | 0.96 | .
Cn1c(=O)[nH]c(=O)c2c1nc(N1CCN(Cc3ccccc3)CC1)n2Cc1ccccc1F | 0.55 | -0.55
CCOC(=O)N1CCC(Nc2c(NCCOC)c(=O)c2=O)CC1 | -0.75 | -2.8
CC1(C)CC(=O)c2cc3c(N)c(C(=O)Nc4ccc(Cl)cc4)sc3nc2C1 | 0.54 | -0.89
CCOC(=O)Cn1c(C2CC(=O)N(Cc3cccs3)C2)nc2ccccc21 (configuration not stated) | 0.64 | -0.86
COc1ccc(-c2onc(C)c2-c2ccccc2)c(O)c1 | 1.1 | -3
Clc1nc(NCc2ccccc2)nc(NCc2ccccc2)n1 | -1.1 | 0.77
Cc1nc2c(c(C)nn2C(C)(C)C)c(C)c1CCC(=O)N1CCN(C)CC1 | 1.4 | 0.1
O=c1[nH]c2ccsc2c(=O)n1-c1ccc(F)cc1 | . | -0.33
CC(C)CC(C(=O)NCCCOC(C)C)N1Cc2ccccc2C1=O (configuration not stated) | 2 | .
Cc1cccc(C(=O)Nc2cnc3sc(C)nn3c2=O)c1 | -0.94 | -1.6
COc1ccc(-c2cc(C)no2)cc1S(=O)(=O)N(C)Cc1ccco1 | 1.2 | .
CCN1c2ccccc2-c2nc(SCC(=O)Nc3ccc(F)cc3F)ncc2S1(=O)=O | -0.85 | .
O=C(c1nc(-c2ccncc2)no1)N1CCN(Cc2ccc3c(c2)OCO3)CC1 | 0.74 | .
COCCn1c(CN2CCOCC2)nc2c1c(=O)n(C)c(=O)n2C | 0.29 | -2.1
CN(Cc1nc2ccccc2n1CCCOc1ccccc1Cl)C(=O)c1ccco1 | -0.27 | 0.61
CC(C)Oc1ccccc1-c1nnc2n1N=C(c1ccccc1)CS2 | 0.05 | 0.19
Cc1[nH]c(C)c(S(=O)(=O)N2CCCCC2)c1C(=O)N1CCCC1 | -1.3 | .
CNS(=O)(=O)c1cn(CC(=O)NC2CCCc3ccccc32)cc1S(=O)(=O)NC (configuration not stated) | 0.81 | .
O=C(CCn1c(=O)sc2ccccc21)Nc1nc2ccccc2s1 | . | -2
CCOc1cc(C2CC(=O)N3CN(c4ccc(C)c(C)c4)CSC3=C2C#N)ccc1O (configuration not stated) | 2.2 | 1.9
O=C(NCc1ccc(Cl)cc1)C1=Cc2cc(Br)ccc2OC1 | 1.9 | .
CCn1c(C(=O)N2CCC(C(=O)NCC(C)c3ccccc3)CC2)cc2sccc21 (configuration not stated) | . | -2.2
Cc1nc(N2CCCC2)cc(N2CCN(C(=O)C3CCCCC3)CC2)n1 | 0.32 | -0.54
COc1cccc(Cn2cc3c(-c4ccccc4)nnc-3c3cc4c(cc32)OCO4)c1 | 3 | -1.4
CC1CC(C)CN(CCCNC(=O)C2CCCN(S(=O)(=O)N3CCCC3)C2)C1 (configuration not stated) | 0.5 | .
CCN(Cc1ccccc1)S(=O)(=O)c1ccc(CN2C(=O)c3cccnc3C2=O)s1 | 0.23 | .
Cc1cc(CSc2cc(C)c(Cl)cc2C)no1 | . | -0.07
Cc1cccc(-c2csc(-c3nc(-c4ccc5c(c4)OCO5)no3)c2-n2cccc2)c1 | 0.67 | -5.4
Cc1oc(-c2ccccc2F)nc1CSc1nc2c(c(=O)[nH]1)CCCC2 | 1.6 | 0.49
CCc1cccc(CC)c1NS(=O)(=O)c1cc(Br)cnc1N | 0.75 | -1.8
Cn1cc(-c2cc3n(n2)CCC(=O)N3CC(=O)N2CCCC2)c2ccccc21 | -0.5 | .

Arranged by molecular weight (lowest first): part of the list above
SMILES | HIV TAR-Tat | CDC25B-CDK2 inh
Cc1cc(CSc2cc(C)c(Cl)cc2C)no1 | . | -0.07
COCCn1c(CN2CCOCC2)nc2c1c(=O)n(C)c(=O)n2C | 0.29 | -2.1
CC(C)Oc1ccccc1-c1nnc2n1N=C(c1ccccc1)CS2 | 0.05 | 0.19
O=C(CCn1c(=O)sc2ccccc21)Nc1nc2ccccc2s1 | . | -2
Cc1oc(-c2ccccc2F)nc1CSc1nc2c(c(=O)[nH]1)CCCC2 | 1.6 | 0.49
Cn1cc(-c2cc3n(n2)CCC(=O)N3CC(=O)N2CCCC2)c2ccccc21 | -0.5 | .
O=C(NCc1ccc(Cl)cc1)C1=Cc2cc(Br)ccc2OC1 | 1.9 | .
CCc1cccc(CC)c1NS(=O)(=O)c1cc(Br)cnc1N | 0.75 | -1.8
COc1cccc(Cn2cc3c(-c4ccccc4)nnc-3c3cc4c(cc32)OCO4)c1 | 3 | -1.4
CC1CC(C)CN(CCCNC(=O)C2CCCN(S(=O)(=O)N3CCCC3)C2)C1 (configuration not stated) | 0.5 | .
CN(Cc1nc2ccccc2n1CCCOc1ccccc1Cl)C(=O)c1ccco1 | -0.27 | 0.61
Cc1cccc(-c2csc(-c3nc(-c4ccc5c(c4)OCO5)no3)c2-n2cccc2)c1 | 0.67 | -5.4
CCOc1cc(C2CC(=O)N3CN(c4ccc(C)c(C)c4)CSC3=C2C#N)ccc1O (configuration not stated) | 2.2 | 1.9
CNS(=O)(=O)c1cn(CC(=O)NC2CCCc3ccccc32)cc1S(=O)(=O)NC (configuration not stated) | 0.81 | .
CCN(Cc1ccccc1)S(=O)(=O)c1ccc(CN2C(=O)c3cccnc3C2=O)s1 | 0.23 | .

Source: PubChem BioAssay
